# SmPrx2 inh: blocks S. mansoni peroxiredoxin 2 enzymatic activity; S. mansoni Prx2 activity coupled to TGR/GSH (TGR is thioredoxin glutathione reductase), NADPH fluorescence loss, qHTS; some inactives read as strong as hits; Potency, µM; 65,000 tested, 0.07% active; active means full or partial inhibition curve with a strong effect at the top dose; inconclusive means weaker partial or single-point curve; inactive means no accepted curve; note: series up to 57 µM; many of its hits are not listed in these tables
#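 Purified S. mansoni TGR and Prx2 in pH 7.4 phosphate buffer with EDTA and Tween-20 were preincubated with compounds for 15 min. Further NADPH/GSH was added, then a 2.5 mM H2O2 aliquot initiated turnover, followed kinetically by NADPH fluorescence.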
# LT uptake inh: blocks cellular internalization of anthrax lethal toxin | Cells, anthrax lethal toxin internalization, FRET ratio (460/530) | Potency, µM (titrated, usually from 40 µM), inactives show top-dose activity change, negative = inhibition, actives largely listed as inhibitors | 70,000 tested, 0.67% active | AID 912; active = well fitted falling ratio curve with the 530 nm signal flat; inconclusive = other ratio curves, or a change in one channel alone; inactive = flat curves in the ratio and both channels; the % refers to the ratio; note: % is set by controls: 0 for no effect and ±100 for the full control effect; nearly all actives have a fitted effect of over 50% in size; tested in ME-180 cells; beta-lactamase reporter
# * marks the source's active call; other numbers are inactive results; i = inactive; ? = inconclusive; nt = not tested or not shown; [ ] = dose if it differs, or a comment. Potency is the fitted concentration of half-maximal effect. Some of the compounds tested; the hit share may differ from the screen's.
SMILES,SmPrx2 inh,LT uptake inh
CCCOC(=O)C1=C(C)NC2=C(C(=O)C(C(=O)OC)C(C)C2)C1c1ccc(N(C)C)cc1 (configuration not stated),>57,?
CCc1ccc2[nH]c(=O)c(CN(Cc3ccc(OC)cc3)Cc3nnnn3CCOC)cc2c1,>57,-12%
CC(C)Oc1ccc(NC(=O)C2CCCNC2=O)cc1 (configuration not stated),>57,-5%
CN(C)S(=O)(=O)c1cccc(-c2nnc(SCc3ccc4c(c3)OCCO4)o2)c1,>57,?
CCN(CCO)C1CC(=O)N(c2ccccc2C)C1=O (configuration not stated),>57,?
CC1CCCN(C(=O)C2CCN(CC3CC=CCC3)CC2)C1 (configuration not stated),>57,-18%
CC(=O)N=c1cccc(NC(C)=O)n1O,nt,1%
Cc1ccc(N2CC(C(=O)N3CCc4ccccc43)CC2=O)cc1 (configuration not stated),>57,-6%
c1ccn2c(Cc3nnc4ccccn34)nnc2c1,>57,2%
O=C(Oc1cccc2ccccc12)c1ccco1,nt,-14%
COC(=O)c1ccccc1NC(=O)N1CCN(C(=O)c2ccco2)CC1,>57,10%
N#Cc1ccccc1-c1ccc2ncnc(NCCN3CCOCC3)c2c1,>57,-2%

# Quoted at random: 2 records from the list
SMILES,SmPrx2 inh,LT uptake inh
O=C(Oc1cccc2ccccc12)c1ccco1,nt,-14%
CCc1ccc2[nH]c(=O)c(CN(Cc3ccc(OC)cc3)Cc3nnnn3CCOC)cc2c1,>57,-12%

# Further results
SMILES,SmPrx2 inh,LT uptake inh
N#C/C(=C\c1ccco1)Sc1nc2ccccc2s1,>57,?
O=C(C1CCCN(S(=O)(=O)c2ccccc2)C1)N1CCN(c2ncccn2)CC1 (configuration not stated),>57,10%
O=C(c1ccccn1)N1CCN(c2ccc(C(F)(F)F)cn2)CC1,>57,-4%
COc1cccc(-n2nnc3c(=O)n(CC(=O)NC4CCCC4)cnc32)c1,>57,7%
CSc1nc2ccccc2n1C(=O)NC1CCCCC1,>57,0%
Cc1ccccc1NC(=O)CCN1CCN(C/C=C/c2ccccc2)CC1,nt,-12%
O=C1CSC(c2ccccn2)N1c1cccc(Cl)c1 (configuration not stated),>57,?
Cc1cccc(OCc2nc(C#N)c(NCc3ccc4c(c3)OCO4)o2)c1,>57,?
CCOc1ccc(Nc2nc3c(c(=O)[nH]2)CCC3)cc1,>57,8%
O=c1cc(-c2ccccc2)[nH]n1-c1nc2ccccc2[nH]1,>57,33%
CCOC(=O)N1CCN(c2nc(C)c3c(n2)CCCC3=O)CC1,>57,?
C=CCn1c(SCC(=O)NC(=O)NC2CCCC2)nnc1C1CCCCC1,>57,-5%

# Reprinted from the entries so far, 16 compounds:
SMILES,SmPrx2 inh,LT uptake inh
c1ccn2c(Cc3nnc4ccccn34)nnc2c1,>57,2%
O=C(Oc1cccc2ccccc12)c1ccco1,nt,-14%
COC(=O)c1ccccc1NC(=O)N1CCN(C(=O)c2ccco2)CC1,>57,10%
N#Cc1ccccc1-c1ccc2ncnc(NCCN3CCOCC3)c2c1,>57,-2%
N#C/C(=C\c1ccco1)Sc1nc2ccccc2s1,>57,?
O=C(C1CCCN(S(=O)(=O)c2ccccc2)C1)N1CCN(c2ncccn2)CC1 (configuration not stated),>57,10%
O=C(c1ccccn1)N1CCN(c2ccc(C(F)(F)F)cn2)CC1,>57,-4%
COc1cccc(-n2nnc3c(=O)n(CC(=O)NC4CCCC4)cnc32)c1,>57,7%
CSc1nc2ccccc2n1C(=O)NC1CCCCC1,>57,0%
Cc1ccccc1NC(=O)CCN1CCN(C/C=C/c2ccccc2)CC1,nt,-12%
O=C1CSC(c2ccccn2)N1c1cccc(Cl)c1 (configuration not stated),>57,?
Cc1cccc(OCc2nc(C#N)c(NCc3ccc4c(c3)OCO4)o2)c1,>57,?
CCOc1ccc(Nc2nc3c(c(=O)[nH]2)CCC3)cc1,>57,8%
O=c1cc(-c2ccccc2)[nH]n1-c1nc2ccccc2[nH]1,>57,33%
CCOC(=O)N1CCN(c2nc(C)c3c(n2)CCCC3=O)CC1,>57,?
C=CCn1c(SCC(=O)NC(=O)NC2CCCC2)nnc1C1CCCCC1,>57,-5%

# The results go on:
SMILES,SmPrx2 inh,LT uptake inh
Clc1cccc(-c2ccc(/C=N/n3cnnc3)o2)c1,nt,-1%
CC1(C)C(N(O)C(=O)Nc2ccccc2)N(c2cccc(Cl)c2)C(=O)N1O (configuration not stated),>57,-10%
COCCn1c(CN2CCC(Cc3ccccc3)CC2)nc2c1c(=O)n(C)c(=O)n2C,>57,-10%
CC(C)Cn1c(=O)c2c(nc3n2CCCN3CCc2ccccc2)n(C)c1=O,>57,?
Brc1cccc(-c2nnc3sc(CN4CCC5(CC4)OCCO5)cn23)c1,>57,-7%
O=c1c2ccccc2nc2c3ccccc3c(N3CCOCC3)nn12,>57,-3%
CCc1nnc(NC(=O)C2Cc3ccccc3CN2S(=O)(=O)c2cccs2)s1 (configuration not stated),>57,-6%
COc1cccc(C2NC(=O)NC(O)(C(F)(F)F)C2C(=O)c2cccnc2)c1OC (configuration not stated),>57,-4%
COC(=O)CN(c1ccccc1C)S(C)(=O)=O,nt,6%
CC(C)n1nc(C(=O)NCCc2ccc(S(N)(=O)=O)cc2)c2ccccc2c1=O,>57,6%
O=c1cc(-c2ccco2)oc2ccc(Cl)cc12,nt,-7%
Cc1occc1-c1nnc(SCC(=O)c2cc3ccccc3oc2=O)o1,>57,-13%
Cn1c(=O)cc(OCCCC(=O)NCc2ccc3c(c2)OCO3)c2ccccc21,>57,8%
COc1cccc(-c2cc(C(F)(F)F)nc(-n3cncn3)n2)c1,>57,6%
COc1cc(OC)c(-c2nn3c(-c4ccncc4)nnc3s2)cc1OC,>57,?
Cc1[nH]c2ccccc2c1C(=O)CN1CCC(C(N)=O)(N2CCCCC2)CC1,>57,8%
Oc1ccc(-c2csc(NCc3ccco3)n2)cc1,>57,?
CC(=O)C1C(=O)NC23CCCCC2C1c1ccccc1O3 (configuration not stated),>57,nt
COCCNC(=O)CN(c1ccccc1OC)S(C)(=O)=O,nt,-10%
Cc1nnc2sc(-c3ccc(NC(=O)c4cccnc4)cc3)nn12,>57,-6%
O=C1N(O)C2(C=CCCC2)/C(=N\O)C12CCCCC2 (configuration not stated),nt,20%
O=P(CCNCc1ccco1)(c1ccccc1)c1ccccc1,nt,-4%
CC(C)C(=O)Nc1nnc(CCc2nnc(NC(=O)C(C)C)s2)s1,>57,-15%
CCCN(CCC)C(=O)Cn1c(=O)n(CCCCC(=O)NC2CCCC2)c(=O)c2ccccc21,>57,-6%
CCOc1ccc(Nc2ncnc(N)n2)cc1,nt,16%
COc1cccc(CN(C(=O)c2cc3ccccc3oc2=O)C2CC2)c1,i,-4%
COc1ccc(Cc2nn3c(Cn4nnc5ccccc54)nnc3s2)cc1,>57,?
COc1cccc(NC(=O)CCS(=O)(=O)c2cccs2)c1,>57,2%
COc1ccc(C2=C(C)CC(C)(C)NC2=O)cc1OC,>57,4%
N#CC1=C(SCC(=O)c2cc3ccccc3oc2=O)NC(=O)C(C#N)C12CCCC2 (configuration not stated),>57,3%
Cc1nnc(SCC(=O)c2cc(C)n(-c3c(C)n(C)n(-c4ccccc4)c3=O)c2C)s1,>57,-18%
C=CCOC(=O)CN1C(=O)c2ccccc2C1=O,>57,-15%
CCn1cc(C(=O)NCCOC)c(=O)c2ccc(C)nc21,>57,8%
O=C(Nc1ccc(F)cc1)Nc1ccc(Cl)cn1,>57,-1%
COc1cccc(C2CC(=O)N3CN(c4cccc(Cl)c4C)CSC3=C2C#N)c1OC (configuration not stated),nt,?
Cc1cc(C)cc(NC(=O)C2CCCN(c3nc(C)cc(C)n3)C2)c1 (configuration not stated),>57,-3%
Cc1oc2c(CN3CCOCC3)c(O)ccc2c(=O)c1-c1ccccc1,>57,-6%
CCn1c(C(=O)N2CCCC(C(=O)NCCCc3ccccc3)C2)cc2sccc21 (configuration not stated),>57,-27%
COc1ccc(NC(=O)c2coc3ccccc23)cc1OC,>57,5%
O=C(CSc1nnc(-c2ccc(S(=O)(=O)N3CCCC3)cc2)n1CC1CCCO1)NC1CC1 (configuration not stated),>57,?
CCn1cc(C(=O)N2CCCC2)c(=O)c2cc(S(=O)(=O)N(C)C)ccc21,>57,1%
COC(=O)CC1=COC(O)C2C(CO)=CC[C@@H]12 (some centres not stated),nt,-15%[8 µM]
CCOC(=O)c1[nH]c(C)c(CCC(=O)OC)c1C,>57,0%
CCn1c(=O)c(C(=O)CN2CCOCC2)c(N)n(Cc2ccccc2)c1=O,>57,?
CC(=O)OC1CC(C)(C)N(OC(=O)c2ccc(N)cc2)C(C)(C)C1,>57,-3%
COc1cccc(-c2cnc(NCc3cc(Cl)ccc3O)n2C)c1,>57,?
CCC(=O)Nc1ccc(S(=O)(=O)Nc2cccnc2)cc1,>57,6%
COc1ccccc1NC(=O)N(Cc1ccco1)Cc1cc2cc(C)cc(C)c2[nH]c1=O,>57,?
Cc1nc2ccc(S(=O)(=O)NCC(=O)N(C)Cc3ccco3)cc2s1,>57,12%
COC(=O)Cc1c(C)c2c(O)cc(C)cc2oc1=O,>57,nt
COc1ccccc1S(=O)(=O)Cc1ccc(C(=O)N2CCN(c3ccccc3)CC2)o1,>57,4%
CCOC(=O)c1cc(-c2ccncc2)nc2c1c(C)nn2C,>57,-20%
CCC1SC2=NC(C)=C(C(=O)OC)C(c3cccs3)N2C1=O (configuration not stated),>57,-2%
Cc1ccccc1S(=O)(=O)Cc1ccc(C(=O)NCCN2CCN(Cc3ccccc3)CC2)o1,>57,?
COc1ccc(C2NCCO2)cc1OC (configuration not stated),>57,-22%
COc1ccc2[nH]cc(CCNc3ncncc3-c3c(C)noc3C)c2c1,>57,-1%
CC(C)(C)NC(=O)C(c1ccc(F)cc1)N(Cc1ccco1)C(=O)c1csnn1 (configuration not stated),>57,-2%
CC12CC(NC(=O)N1c1cccc(C(=O)Nc3ncn[nH]3)c1)c1ccccc1O2 (configuration not stated),>57,2%
Cn1nnnc1SCc1cc(=O)[nH]c2ccccc12,>57,-10%
CC(C)(C#N)Nn1cnnc1,>57,-1%
# Further records follow.
SMILES,SmPrx2 inh,LT uptake inh
COCCNC(=O)CSc1nc2c(n1-c1ccccc1)CCCC2,>57,-5%
CCOC(=O)CC(N)c1ccc(OC)cc1 (configuration not stated),>57,-4%
CCOc1cc(C(=O)NCc2nnc(SCC(=O)OC)n2C)cc(OCC)c1OCC,>57,1%
O=C(CSC1=NCCS1)Nc1nc2c(s1)CCCC2,>57,-14%
CCn1c(SCC(N)=O)nnc1-c1ccc(S(=O)(=O)N2CCN(C)CC2)cc1,>57,24%
O=C(Nc1ccc(SC(F)F)cc1)C1=COCCO1,>57,6%
CCCCCCNS(=O)(=O)c1ccc(Cl)s1,>57,-6%
CCn1c(C)nc2cc(C(=O)OC(C(F)(F)C(F)F)C(F)(F)C(F)F)ccc21,>57,2%
CCOc1ccc(OCC)c(Nc2cc(C)nc3nc(C)nn23)c1,>57,-8%
O=C1C2C(C(=O)N1c1ccncc1)C1C=CC2C12CC2 (configuration not stated),>57,?
COC(=O)CN(c1ccccn1)S(=O)(=O)c1ccccc1,>57,8%
CNc1ccnc(-c2ccccc2CN(C)C)n1,>57,-8%
COC(=O)n1ccc(C(=O)Nc2ccccc2F)n1,>57,11%
COc1cccc(N2CCN(CC(=O)c3c[nH]c4ccc(OC)cc34)CC2C)c1 (configuration not stated),>57,-21%
COCC(=O)Nc1sc2c(c1C(=O)OC)CCC(C)C2 (configuration not stated),>57,-9%
COC(=O)N1CCC2(CCCN(Cc3nccs3)C2)CC1,>57,16%
Cc1ccc(CNc2oc(-c3cccs3)nc2C#N)cc1,>57,-11%
N#C/C(=C\c1ccc(O)c(O)c1)C(N)=O,>57,4%
C=CCNC(=O)c1oc2ccc(S(=O)(=O)N(CC)CC)cc2c1C,>57,-12%
COc1ccc2oc(C(=O)C3CC3)c(NC(=O)CCCN3C(=O)c4ccccc4C3=O)c2c1,>57,-9%
O=C1CCCc2[nH]nc(-c3cccnc3)c21,>57,14%
Cc1ccc(C(=O)Nc2ncc(Cc3ccccc3)s2)o1,>57,-21%
Cc1noc(C)c1CSc1ncnc2sc3c(c12)CCC3,>57,-14%
COC(=O)c1[nH]c(C)c(/C(O)=C2\C(=O)C(=O)N(CCN(C)C)C2c2ccco2)c1C (configuration not stated),>57,7%
CCOC(=O)/C(C#N)=C1/SC(CC)C(=O)N1c1ccc(C)cc1 (configuration not stated),>57,-2%
OC(c1cccnc1)c1cccs1 (configuration not stated),>57,1%
CC(=O)N1CCN(c2ccc(NCc3ccc4c(c3)OCO4)cc2)CC1,>57,-3%
COc1c(C)cc(Br)cc1C(=O)NCc1cccnc1,>57,3%
COCCNC(=O)C(c1ccco1)N(C(=O)Cn1nnc2ccccc21)c1ccc(C)cc1C (configuration not stated),>57,1%
CCCCOC(=O)c1cc2c(cn1)[nH]c1ccccc12,>57,?
C=CCn1c(SCC(=O)Nc2cc(C)cc(C)c2)nnc1-c1cnccn1,>57,3%
CC1CCC(NC(=O)C2(C)CCC(=O)N2Cc2cccnc2)CC1 (configuration not stated),>57,-2%
Nc1nnc(C2CCCC2)s1,nt,-1%
N#CC1=C(N)Oc2c(c(=O)oc3ccccc23)C1c1cccnc1 (configuration not stated),>57,2%
O=C(CN1CCN(C(=O)c2ccco2)CC1)Nc1ccc2c(c1)OCCO2,>57,7%
Cc1cccc(OCCCCc2c(C)n[nH]c2C)c1C,nt,-14%
CCOC(=O)c1cnc(SCC(=O)Nc2ccc(NC(=O)CC)c(OC)c2)nc1N,>57,12%

# High-throughput results: PubChem BioAssay, National Center for Advancing Translational Sciences (NCATS)
